# High-throughput results (PubChem BioAssay)
# MenB inh: Mtb MenB enzyme inhibition; P9WNP5; MenB enzyme assay, absorbance read-out; some hits fall short of the stated cut; inhibition, %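 (about 12 µg/mL by stock and volumes)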; 0.43% of 100,000 active; AID 540299;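 active = mean of two replicates above 30%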;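 also: 0% = no compound and 100% = wells with inactive enzyme; the first replicate is given; strong numbers were not always called active; inactives centre near -10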
# Target sequence (P9WNP5 whole entry, looked up): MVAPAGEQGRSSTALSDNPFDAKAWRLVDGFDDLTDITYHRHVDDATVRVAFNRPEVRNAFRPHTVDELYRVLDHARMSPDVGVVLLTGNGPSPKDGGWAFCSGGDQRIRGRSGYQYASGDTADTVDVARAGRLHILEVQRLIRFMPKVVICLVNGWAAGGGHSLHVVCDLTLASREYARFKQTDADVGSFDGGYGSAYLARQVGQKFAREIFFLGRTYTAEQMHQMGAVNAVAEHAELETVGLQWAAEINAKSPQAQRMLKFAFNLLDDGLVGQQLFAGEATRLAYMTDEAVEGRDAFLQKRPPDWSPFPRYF
# MbtI inh: inhibitors of Mycobacterium tuberculosis siderophore enzyme MbtI | P9WFX0 | purified MbtI enzyme, fluorescence intensity read-out | 0.89% of 100,000 active | inhibition, %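 (about 17 µg/mL by stock and volumes)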;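 active = above 50% in both replicates, above 80% if mildly self-fluorescent; inactive = the rest, strongly fluorescent compounds included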;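 also: 0% = mean of negative and 100% = mean of positive controls; one replicate is shown; some compounds called inactive have numbers as strong as hits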
# PV pol inh: inhibitors of poliovirus RNA polymerase binding and polymerization; 0.66% of 150,000 active; poliovirus polymerase elongation, fluorescence polarization; hits give low values; % elongation, % (compound at 16.7 µg/mL); AID 588519; P03300; in the data active = % elongation below about 90%; also: some results filed as inactive read as strong as hits
# Target sequence (P03300 1749-2209 limits assumed): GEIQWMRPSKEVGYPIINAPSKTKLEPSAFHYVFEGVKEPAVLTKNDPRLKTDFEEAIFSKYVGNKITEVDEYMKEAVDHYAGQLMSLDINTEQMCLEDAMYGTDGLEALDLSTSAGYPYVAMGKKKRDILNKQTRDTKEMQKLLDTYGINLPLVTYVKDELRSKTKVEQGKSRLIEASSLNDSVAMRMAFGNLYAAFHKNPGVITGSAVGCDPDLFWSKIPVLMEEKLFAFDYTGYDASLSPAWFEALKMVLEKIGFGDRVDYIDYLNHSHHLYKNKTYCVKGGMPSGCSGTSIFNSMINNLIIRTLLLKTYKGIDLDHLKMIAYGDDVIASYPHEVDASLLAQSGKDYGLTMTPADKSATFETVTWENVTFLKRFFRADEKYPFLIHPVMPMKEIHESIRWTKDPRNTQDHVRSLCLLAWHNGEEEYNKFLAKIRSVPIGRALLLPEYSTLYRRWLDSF
# PV pol inh intensity: also measured in PV pol inh; calls as there; % elongation; measured here: total intensity read-out; formula for this scale not given here;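 total fluorescence in place of polarization; lower means less elongation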
# An asterisk follows results filed as active; nt = no result given; & = joins results of further samples. Random draw from the library; about 1.7% have a hit in one of these screens.
SMILES,MenB inh,MbtI inh,PV pol inh,PV pol inh intensity
CCN(CC)S(=O)(=O)c1ccc2c(c1)CC(C)N2C(=O)C1CC1 (configuration not stated),2.1,-0.7,100.0,101.0
CN1Cc2ccccc2N(CC(=O)O)C1=O,-14.0,89.3,104.0,101.0
CCOC(=O)C(Cc1ccccc1)C(=O)Nc1nc2ccccc2s1 (configuration not stated),-3.7,15.2,99.0,101.0
CN1CCN(CNC(=O)c2cnccn2)CC1,-36.7,4.3,103.0,107.0
CC(=O)Nc1ccc(NC(=O)Cc2c[nH]c3ccccc23)cc1,-9.2,-24.8,100.0,101.0
CCn1cc(C(=O)NCC(OC)OC)c(=O)c2cc(S(=O)(=O)N3CCc4ccccc4C3)ccc21,0.9,-8.5,100.0,100.0
O=C1OC2(CCCCC2)OC(=O)C1=CNc1nccs1,-4.3,-6.4,101.0,101.0
Cc1ccccc1OCC(=O)Nc1ccc(-c2nc3ccccc3o2)cc1,-2.7,16.1,102.0&102.0,108.0&100.0
Cc1nn(-c2ccccc2)c2sc(C(=O)C(C#N)c3ccc4ccccc4n3)cc12 (configuration not stated),-19.3,-1.5,102.0,109.0
O=C(NNc1ccccc1)C(F)(F)F,1.8,5.7,102.0,102.0
NC(=O)COC(=O)/C=C/c1ccc(Cl)cc1Cl,nt,2.0,103.0,110.0
O=C(NN=C1CCCC1)c1ccc(Cl)cc1,-25.8,4.1,103.0,102.0
Cn1/c(=N/NC(=S)NC(=O)C2CC2)sc2ccccc21,-38.3,74.0,105.0,110.0
COc1ccc2c(c1)SC1=NC(c3ccccc3)(C(F)(F)F)NC(=O)N12 (configuration not stated),-18.0,18.1,104.0,107.0
O=C(CN1C(=O)CCC1=O)Nc1ccc(OC(F)F)cc1,1.0,5.8,101.0,106.0
Cc1ccccc1OCC(=O)NC(C)(C)C,-16.0,nt,107.0,109.0
Cc1nn2c(nc1=O)NN=C(c1ccccc1)C2,8.3,-9.5,100.0,100.0
CCOC(=O)/C=C(\C)Nc1ccc(Cl)cc1,6.6,4.8,103.0,104.0
COc1ccc2cc(S(=O)(=O)Nc3ccccn3)ccc2c1,21.1,2.0,102.0,100.0
Cc1sc2nc3n(c(=O)c2c1-c1ccccc1)CCC3,-19.4,87.4,76.0*,84.0*
CCCc1nc(Nc2nc3ccccc3o2)ncc1C(=O)OCC,-8.6,nt,108.0,98.0
CCOc1ccccc1C(=O)NC1CC2CCCC(C1)N2C1CC1 (configuration not stated),-22.8,-1.1,99.0,101.0
O=C(NCc1ccccc1)c1cc(C2CC2)on1,-10.8,-3.2,99.0,96.0
Cc1cc(C)c(S(=O)(=O)NCCO)c(C)c1,nt,-2.5,103.0,104.0
O=S(=O)(O)c1cc(O)ccc1O,1.4,-11.4,100.0,100.0
CC(C)(C)n1nnnc1C(c1ccccn1)N1CCC(Cc2ccccc2)CC1 (configuration not stated),-11.4,-2.5,101.0,102.0
CS(=O)(=O)N1c2cccc3cccc(c23)S1(=O)=O,-18.8,-5.2,105.0,112.0
Cc1nn(C2CCS(=O)(=O)C2)c(Cl)c1/C=C/C(=O)OCC(N)=O (configuration not stated),-2.2,-22.4,106.0,111.0
Cc1cc(Nc2ccccc2)n[nH]1,nt,-10.2,100.0,101.0
C/C(=C\C(=O)c1ccc(C)o1)Nc1ccc(F)c(C)c1,-19.1,-8.6,103.0,103.0
O=C(Nc1ccc(S(=O)(=O)Nc2nccs2)cc1)c1cc(-c2ccccc2)nc2ccccc12,-40.1,-1.1,98.0,107.0
CC(COc1ccc2c(c1)OCO2)NC(=O)Cn1nnc2ccccc2c1=O (configuration not stated),-15.1,-6.9,101.0,103.0
Cc1sc2nc3ccc(NCc4ccco4)nn3c(=O)c2c1C,-35.3,3.9,106.0,121.0
COCc1cc(=O)[nH]c2c1c(-c1cccs1)nn2C,-5.7,-58.5,107.0,108.0
CCc1nc(SCS(=O)(=O)c2ccc(C)cc2)c(C#N)c2c1CCCC2,-19.2,74.0,101.0,103.0
CC(NC(=O)c1cc(=O)c2ccccc2o1)C(c1ccccc1)N1CCOCC1 (configuration not stated),-13.4,-1.9,105.0,112.0
O=CNc1cccc(O)c1,-33.2,-4.2,103.0,96.0
CCCN1CCC(NC(=S)NCCOC)CC1,-2.7,-12.7,102.0,105.0
O=C(NCc1ccccc1)c1cnn2c(C(F)(F)F)cc(-c3ccco3)nc12,-65.1,14.8,103.0,106.0
CC(=O)Nc1ccc(C(=S)NCCCO)cc1,-7.5,85.4,77.0*,87.0*
O=c1n(CN2CCOCC2)c2ccccc2n1CN1CCOCC1,-3.3,nt,108.0,108.0
COc1ccc(NC(=S)SC)cc1OC,15.5,nt,104.0,110.0
O=C(CCc1nc2sc3c(c2c(=O)[nH]1)CCCC3)NC1CCCC1,7.2,13.9,100.0,101.0
CCSc1nsc(SCC)c1C(=O)O,-4.6,nt,88.0*,96.0*
CCN(Cc1ccccc1)C(=O)c1nn(C)c(=O)c2ccccc12,-9.1,-3.5,104.0,108.0
CC1CC(=O)c2cnc(N3CCCCC3)nc2C1 (configuration not stated),-10.5,6.2,104.0,104.0
COc1ccc(CCn2c(C)nc(=O)c(-c3ccccc3)c2C)cc1OC,-8.6,-12.8,103.0,108.0
CCNc1[nH]c(=S)nc2c1cnn2-c1ccccc1,8.7,-11.3,100.0,108.0
CC(=O)NC1=NN(C(C)=O)C2(S1)C(=O)N(Cc1ccccc1)c1ccccc12 (configuration not stated),-4.5,nt,107.0,107.0
CN(C)C(=O)CSc1nnc(-c2cccc(F)c2)n1-c1ccccc1,-22.6,nt,106.0,103.0

# (listing goes on)
SMILES,MenB inh,MbtI inh,PV pol inh,PV pol inh intensity
COC(=O)/C=C1/NC(=O)CS1,nt,19.8,101.0,104.0
Fc1ccc(CNCc2cccnc2)cc1,5.6,nt,104.0,105.0
COc1ccc(S(=O)(=O)N(C)CC(=O)NCc2ccc3c(c2)OCO3)cc1,8.8,-4.2,104.0,108.0
Cc1[nH]nc2oc(=O)c(Cl)c(C)c12,-8.6,6.5,102.0,102.0
Cc1ccc(S(=O)(=O)N(C)C2CCCCC2)cc1C,-25.7,7.4,104.0,105.0
CCCC1(C(=O)OCC)CC(CSC(=N)N)OC1=O (configuration not stated),-13.4,-7.8,106.0,103.0
CN(C)S(=O)(=O)c1cccc(CSc2nnnn2-c2ccccc2)c1,-18.4,8.3,103.0,107.0
CCc1ccc2c(CC(=O)N3CCN(S(=O)(=O)c4cccs4)CC3)coc2c1,-30.1,-9.6,102.0,101.0
Cc1cc(Cl)ccc1OC(C)C(=O)Nc1ccc2c(c1)OCO2 (configuration not stated),-3.0,-5.6,101.0,105.0
CCC(C)NCC(=O)Nc1ccc2c(c1)c1ccccc1n2CC (configuration not stated),-4.5,2.6,102.0,105.0
COc1ccc(N2CCN(S(C)(=O)=O)CC2)cc1,39.7*,-2.1,101.0,101.0
CC(C)N(C(=O)COc1ncnc2ccc(Br)cc12)c1ccccc1,-5.4,-3.2,95.0,103.0
CC(C)(C)N1CC(CO)OC1c1ccccc1 (configuration not stated),-1.2,nt,107.0,111.0
COCCn1c(C)cc(/C=C(\C#N)C(=O)OCc2cc(=O)oc3cc4c(cc23)CCC4)c1C,-9.2,-8.6,115.0,124.0
CCCNC(=O)c1cc2c(=O)n3cccc(C)c3nc2s1,-9.2,-130.1,98.0,96.0
O=C(N1CCOCC1)C(F)(F)F,nt,-10.6,103.0,107.0
COc1ccc(NC(=O)C2CC(C)=C(C)CC2C(=O)O)c(N2CCOCC2)n1 (configuration not stated),-5.7,-1.3,99.0,96.0
CC1(c2ccc3c(c2)OCO3)NC(=O)N(CN2CCN(S(=O)(=O)c3ccccc3C#N)CC2)C1=O (configuration not stated),-9.8,7.7,107.0,122.0
CCCCn1nc(C(=O)N(C)CC(=O)Nc2ccc(F)c(F)c2F)ccc1=O,-5.8,-25.8,101.0,108.0
CCN(CC)S(=O)(=O)c1ccc2c(c1)nc(CCC(=O)N1CCN(c3ccccc3)CC1)n2CC,-27.8,-10.3,103.0,105.0
O=C(COc1ccc(S(=O)(=O)N2CCOCC2)cc1)Nc1ccccc1C(F)(F)F,-37.7,-6.2,101.0,101.0
Cc1ccc(S(=O)(=O)c2cnccn2)cc1,9.5,6.7,100.0,102.0
O=C1CC(N2CCN(Cc3ccccc3)CC2)C(=O)N1Cc1ccccc1 (configuration not stated),-2.2,-17.5,100.0,103.0
Cc1[nH]c(-c2ccc(F)cc2)cc1C(=O)N1CCCCC1,-3.2,-68.7,104.0,108.0
COc1ccccc1Cn1cccc1C1=NC(C)CO1 (configuration not stated),-19.4,-11.7,102.0,101.0
CCOC(=O)N1CCN(C(=O)CCc2nc3cc(Cl)ccc3n(Cc3ccccc3)c2=O)CC1,-23.1,-0.5,111.0,118.0
O=c1[nH]c(=S)[nH]cc1OCc1ccccc1,-1.1,34.2,96.0,101.0
O=C(Oc1ccc2c3c(c(=O)oc2c1)CCC3)c1ccco1,-22.7,8.8,105.0,102.0
CC(=O)N1C(Nc2ccc(C)cc2)CCN1c1ccccc1 (configuration not stated),-0.7,-14.5,102.0,105.0
Cc1cc(C(F)F)n2ncc(C(=O)O)c2n1,0.0,-0.9,102.0,102.0
Cc1cc(OCCCN2CCCC2)ccc1Cl,-20.8,-2.3,99.0,102.0
CCOC(=O)c1c(C)oc(NC(=O)COC(=O)c2ccccc2Sc2ccccc2C#N)c1C#N,-5.9,0.9,101.0,104.0
Nc1ccc(C(=O)N2CCCc3ccccc32)cc1,-19.8,5.7,103.0,101.0
CC(C(=O)Nc1ccccc1)N(C)Cc1ccc(OC(F)F)cc1 (configuration not stated),-0.8,-6.2,100.0,103.0
Cc1ccc(COc2coc(CN3CCc4ccccc43)cc2=O)cc1,8.1,7.7,103.0,104.0
CCn1c(-n2nc(C)cc2N)nc2ccccc21,nt,-8.8,103.0,107.0
CCCN1C(=O)/C(=C/c2ccc(-c3cccc(C(F)(F)F)c3)o2)NC1=S,-32.5,24.9,105.0,124.0
CCCCN1C(=O)CC(N2CCN(c3ccc(F)cc3)CC2)C1=O (configuration not stated),-18.4,-9.8,104.0,103.0
COc1ccc(C[N+](C)(C)C2CCCCC2)cc1OC,-12.9,-3.3,101.0,101.0
O=C(NCCCO)c1ccc(Cl)cc1,-81.6,-6.3,103.0,104.0
Cn1c(/C(C#N)=C(\O)c2ccc(F)cc2)nc2ccccc21,-5.9,13.8,98.0,90.0
O=C1Nc2ccccc2S/C1=C\C(=O)N1CCOCC1,-1.2,0.8,102.0,101.0
CCS(=O)(=O)N1CCc2cc(C(=O)COC(=O)c3cc(Cl)ccc3O)ccc21,-19.4,31.6,103.0,109.0
CNC(=S)NCCCc1ccccc1,-27.7,-0.9,104.0,102.0
O=c1[nH]c(=S)c2c(n1Cc1ccco1)CCC2,-8.1,nt,104.0,103.0
O=C(/C=C/N1CCOCC1)c1cc2ccccc2o1,-156.4,-6.2,102.0,100.0
O=C1/C(=C/c2ccc3nccnc3c2)CCC/C1=C\c1ccc2nccnc2c1,-2.9,-3.5,101.0,105.0
O=C(COc1ccc(Cl)cc1Cl)Nc1ccc(N2CCOCC2)cc1,nt,-16.6,103.0,107.0
CC(=O)N1CCN(CC(=O)N(Cc2ccccc2)c2cccc(C)c2)CC1,-29.7,-5.0,105.0,107.0
CCN(CC1COc2ccccc2O1)C(=O)C1CCN(C(=O)c2ccccc2C)CC1 (configuration not stated),-20.9,-13.2,nt,nt

# A draw from above in order of length of the SMILES, ascending.
SMILES,MenB inh,MbtI inh,PV pol inh,PV pol inh intensity
CNC(=S)NCCCc1ccccc1,-27.7,-0.9,104.0,102.0
O=C(NCCCO)c1ccc(Cl)cc1,-81.6,-6.3,103.0,104.0
CCn1c(-n2nc(C)cc2N)nc2ccccc21,nt,-8.8,103.0,107.0
O=C(/C=C/N1CCOCC1)c1cc2ccccc2o1,-156.4,-6.2,102.0,100.0
O=c1[nH]c(=S)c2c(n1Cc1ccco1)CCC2,-8.1,nt,104.0,103.0
COc1ccc(C[N+](C)(C)C2CCCCC2)cc1OC,-12.9,-3.3,101.0,101.0
Cc1ccc(COc2coc(CN3CCc4ccccc43)cc2=O)cc1,8.1,7.7,103.0,104.0
Cn1c(/C(C#N)=C(\O)c2ccc(F)cc2)nc2ccccc21,-5.9,13.8,98.0,90.0
CC(=O)N1CCN(CC(=O)N(Cc2ccccc2)c2cccc(C)c2)CC1,-29.7,-5.0,105.0,107.0
O=C1/C(=C/c2ccc3nccnc3c2)CCC/C1=C\c1ccc2nccnc2c1,-2.9,-3.5,101.0,105.0
CCN(CC1COc2ccccc2O1)C(=O)C1CCN(C(=O)c2ccccc2C)CC1 (configuration not stated),-20.9,-13.2,nt,nt
CCCN1C(=O)/C(=C/c2ccc(-c3cccc(C(F)(F)F)c3)o2)NC1=S,-32.5,24.9,105.0,124.0
CCS(=O)(=O)N1CCc2cc(C(=O)COC(=O)c3cc(Cl)ccc3O)ccc21,-19.4,31.6,103.0,109.0

# (more compounds)
SMILES,MenB inh,MbtI inh,PV pol inh,PV pol inh intensity
COc1ccc(C2CC(C(F)(F)F)n3nc(C(=O)O)cc3N2)cc1 (configuration not stated),-23.7,-3.1,101.0,102.0
CCCC(C)Nc1oc(-c2ccc(Cl)cc2)nc1C#N (configuration not stated),nt,81.7,99.0,96.0
COc1ccc(-c2nc(SCC(=O)NCc3ccco3)c(-c3ccccc3)[nH]2)cc1,-11.9,5.6,100.0,105.0
Cc1ccccc1OCC(=O)NC1CC2CCC1C2 (configuration not stated),8.9,-4.6,99.0,101.0
CCOc1ccc(S(=O)(=O)N2CCN=C2c2ccccc2)cc1C,-97.1,-19.9,101.0,105.0
